# UCH37 inh – inhibitors of human UCH37 deubiquitinase, primary screen, biochemical, Ub-AMC cleavage, fluorescence; Ubiquitin carboxyl-terminal hydrolase isozyme L5 (Homo sapiens), Q9Y5K5; purified proteasome/UCH37; 330,000 compounds, 0.33% hits; inhibition, % (test concentration not listed);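 active = mean of two replicates above 20%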;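 note: 0% = compound-free wells with enzyme and 100% = wells lacking proteasome; stock transfer was 100 nL into about 20 µL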
# Target sequence (Q9Y5K5 whole entry, looked up): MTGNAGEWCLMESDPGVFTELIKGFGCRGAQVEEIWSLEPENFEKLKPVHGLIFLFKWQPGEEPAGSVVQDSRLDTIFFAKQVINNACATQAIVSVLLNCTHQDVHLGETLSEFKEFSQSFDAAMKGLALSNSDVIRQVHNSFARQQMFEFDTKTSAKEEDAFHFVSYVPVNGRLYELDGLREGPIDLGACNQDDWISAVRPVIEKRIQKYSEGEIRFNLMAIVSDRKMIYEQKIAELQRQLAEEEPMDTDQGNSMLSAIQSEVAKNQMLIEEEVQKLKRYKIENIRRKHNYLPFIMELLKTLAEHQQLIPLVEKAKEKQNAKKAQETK
#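 Material: human UCH37 enzyme supplied as purified proteasome complex / Amount: 0.15 nM proteasome as dispensed / Buffer or medium: pH 7.4 Tris-HCl (50 mM) with ovalbumin, ATP-MgCl2, DTT / Times: preincubation 30 min, reaction 25 min, room temperature / Technique: AMC fluorescence from Ub-AMC cleavage, excitation 355 nm, emission 460 nm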
# Beta2AR agonist – beta2AR agonists driving receptor internalization, primary screen, cell-based, FAP fluorogen, flow cytometry | Beta-2 adrenergic receptor (Homo sapiens), P07550 | Am2.2-beta2AR cells; reference of the scale not given here | response, % (test concentration not listed) | 340,000 compounds, 0.43% hits;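 active = response above a set limit, near 3 SD of response in nonfluorescent compounds, cut at about 42% in these data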;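 note: stock transfer was 100 nL into about 11 µL; a reference agonist was the positive control; negative values mostly stem from fluorescent compounds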
# FGF22 binding – binders of human FGF22 protein, primary screen, FGF22 synaptogenesis inhibitor project, biophysical, thermal shift, single point; 340,000 compounds, 1.5% hits; AID 651658, 2012; calls only at 9.99 µM; Fibroblast growth factor 22 (Homo sapiens), Q9HCT0; recombinant FGF22 thermal shift, SYPRO orange fluorescence; percent of sucrose octasulfate shift, DMSO zero;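 active = melting point raised past a set limit in the mean and every replicate; three in four hits are not shown here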
# HNF4A DNA FP – change in binding of human HNF4A to DNA, primary screen, biochemical, fluorescence polarization, FITC-DNA | Hepatocyte nuclear factor 4-alpha (Homo sapiens), P41235 | 1 h | activity change, % at 10 µM | 360,000 compounds, 0.3% hits | AID 1224865, 2016; in the data active = activity change above about 30%, passing the limit was not always enough;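 note: controls were the assay level and a saturating level of protein; the project sought stronger binding though the title names inhibitors; some compounds called inactive have numbers as strong as hits; positive values seem to mean higher polarization but the record does not say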
# Target sequence (P41235 whole entry, looked up): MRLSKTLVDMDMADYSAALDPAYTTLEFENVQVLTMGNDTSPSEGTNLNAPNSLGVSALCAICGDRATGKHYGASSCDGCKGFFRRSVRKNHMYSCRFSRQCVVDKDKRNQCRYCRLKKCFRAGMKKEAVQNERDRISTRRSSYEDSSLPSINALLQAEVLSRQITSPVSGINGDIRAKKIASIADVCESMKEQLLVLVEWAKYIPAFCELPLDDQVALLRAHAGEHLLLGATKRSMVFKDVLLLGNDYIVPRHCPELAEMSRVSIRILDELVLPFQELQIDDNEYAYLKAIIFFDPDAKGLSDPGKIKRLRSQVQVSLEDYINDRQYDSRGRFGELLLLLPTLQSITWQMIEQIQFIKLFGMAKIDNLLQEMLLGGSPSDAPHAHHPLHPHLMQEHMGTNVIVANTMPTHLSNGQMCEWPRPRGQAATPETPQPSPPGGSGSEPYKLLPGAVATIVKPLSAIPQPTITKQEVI
# E coli growth – E. coli growth inhibition, primary screen, OD600. AID 1053175, 2014. Escherichia coli growth, 23 h; stronger effect = lower value. OD600 absorbance (test concentration not listed). 330,000 compounds, 0.21% hits;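 active = OD600 absorbance below the run mean of sample wells minus 3.6 SD, in any replicate, cut at about 0.56 in these data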;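 note: stock transfer was 300 nL into about 60 µL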
# ALR H2O2 inh – inhibitors of human ALR sulfhydryl oxidase, primary screen, biochemical, H2O2 detection, HRP-luminol luminescence, single point; purified ALR, DTT oxidation; FAD-linked sulfhydryl oxidase ALR (Homo sapiens), P55789; 290,000 compounds, 3.8% hits; inhibition, % (no concentration beside the values); AID 485317, 2010;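 active = mean and each replicate at 75% or more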;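 note: stock transfer was 7.5 nL into about 7.5 µL; 0% = neutral wells and 100% = wells with inactivated enzyme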
# Target sequence (P55789 whole entry, looked up): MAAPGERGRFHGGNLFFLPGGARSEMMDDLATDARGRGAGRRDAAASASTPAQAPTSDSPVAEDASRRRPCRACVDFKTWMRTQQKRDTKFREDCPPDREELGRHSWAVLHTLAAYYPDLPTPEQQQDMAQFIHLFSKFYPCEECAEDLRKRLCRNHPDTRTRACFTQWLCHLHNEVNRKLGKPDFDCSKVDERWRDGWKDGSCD
# rRNA inh HTS – reduced GFP signal of wild-type E. coli, primary screen, bacterial rRNA inhibitor project, GFP/RFP fluorescence, OD600, single point; 350,000 compounds, 1.6% hits; AID 720706, 2013; E. coli WT GFP vs humanized-ribosome RFP mutants, 24 h; stronger effect = lower value; DMSO median 0, no signal -100; GFP signal change (wild-type ribosome), % (test concentration not listed);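 active = significant combined selectivity score with lowered wild-type GFP, culture density cut under 30%, mutant RFP and density less affected; inactive = any of these conditions unmet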; note: one replicate is shown; some compounds called inactive have numbers as strong as hits
# rRNA inh HTS OD600 – also measured in rRNA inh HTS; calls as there; OD600 change, %; measured here: OD600 growth;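 optical density of the mix in the first replicate; 0 = DMSO median and -100 = no signal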
# rRNA inh HTS RFP – further read-out of rRNA inh HTS, marked with its call; RFP signal change, %; measured here: RFP humanized mutant strains;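 first replicate; 0 = DMSO median and -100 = no signal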
# The depositor's hits bear a star; i = inactive; . = not tested or not shown; & = joins results of further samples. The list is partial; the hit share may differ from the screen's.
SMILES,UCH37 inh,Beta2AR agonist,FGF22 binding,HNF4A DNA FP,E coli growth,ALR H2O2 inh,rRNA inh HTS,rRNA inh HTS OD600,rRNA inh HTS RFP
COc1cc(OC)cc(-c2cc3nc(C)c(CCC(=O)NC(C)CCc4ccco4)c(C)n3n2)c1 (stereo not drawn),-9.3,3,.,3.5,0.66,-14,.,.,.
C/C(CC(=O)Nc1ccccc1Br)=N\NC(=O)C(=O)N1CCCC1,.,-5,.,1.9,.,25,.,.,.
COc1ccnc(Oc2ccccc2)c1C(=O)N/C=N/OCc1ccc(F)cc1Cl,2.2,21,.,-0.4,0.67,-1,.,.,.
Cc1onc(-c2ccccc2Cl)c1C(=O)NC(=S)Nc1ccc(C(C)C)cc1,0.0,4,i,-3.3,0.71,-1,5,7,1.6
COc1ccc(C(=O)NCCCC2CCCC2)cc1OC1CCN(C(C)C)CC1,.,.,i,1.7,.,.,2,3,-1.2
C=CCn1c(SCCCC)nc(O)cc1=O,1.3&4.0,-1&1,i,-1.1&-1.0,0.65&0.72,-2&0,5&-3,9&-6,-0.7&11
O=C(NCc1ccc(Cl)cc1)C1=Cc2cc(Cl)ccc2OC1,3.0,-7,.,2.4,0.71,-2,.,.,.
COc1ccc(OC)c(-c2csc(NC(=O)CSc3ccc(Br)cc3)n2)c1,5.2,0,i,1.7,0.76,-1,.,.,.
CN(CC(=O)N1CCc2ccccc21)S(=O)(=O)c1ccc(Cl)cc1,3.9,-11,.,3.4,0.69,2,.,.,.
CN(C(=O)COC(=O)c1cc([N+](=O)[O-])ccc1N1CCOCC1)C1CCCCC1,.,.,i,-0.2,.,.,11,22,5.2
CC(OC(=O)c1cccc(S(=O)(=O)N(C)C)c1)C(=O)NCc1ccc2c(c1)OCO2 (stereo not drawn),-0.7,-9,i,1.8,0.7,-3,-7,-9,2.0
Cc1ccc(S(=O)(=O)N2CCN(C(=O)CN3CCOCC3)C2C(C)C)cc1 (stereo not drawn),3.2,-2,.,2.1,0.73,0,.,.,.
CSc1ccccc1C(=O)Nc1cccc([N+](=O)[O-])c1C,.,7,i,1.4,.,-19,-6,-5,0.4
CCC(C)N(C(=O)Cn1nnc(-c2ccc(F)cc2)n1)C1CCS(=O)(=O)C1 (stereo not drawn),-1.1,1,i,-0.3,0.71,4,3,12,-0.4
CN(C)S(=O)(=O)c1cccc(C(=O)N=C2N=C3C=CC(Cl)=CN3Cc3ccccc32)c1,0.0,-30,i,5.0,0.67,-5,13,6,0.1
Nc1c(C(=O)CSc2nnnn2-c2ccc(O)cc2)c(=O)[nH]c(=O)n1C1CC1,1.5,-3,i,1.6,0.68,.,10,2,-2.3
COc1ccc(N2CCN(c3nc(NCCO)nc(N4CCOCC4)n3)CC2)cc1,0.8,-1,.,2.6,0.71,.,.,.,.
Nc1ccc(-c2ccc(N)c(C(=O)O)c2)cc1C(=O)O,-22,-3,i,-3.1,0.69,83*,17,5,-0.9
Cc1ccc2cc3c(N)c4c(C)ccc(C)c4nc3nc2c1,6.5,3,i,-17,0.64,.,13,20,2.3
CC(C)CNC(=O)NC(=O)COc1c(F)c(F)cc(F)c1F,5.8,5,.,0.8,0.67,-7,.,.,.
O=C(NCCCN1CCOCC1)c1ccc2ccccc2c1,3.5,-7,i,0.7,0.7,-5,5,5,0.8
Cc1nnc(NC(=O)CCC(=O)NCc2cccs2)s1,3.1,8,.,3.9,0.65,-14,.,.,.
O=C(CN1C(=O)CSCC1=O)Nc1ccc2c(c1)OCO2,1.7,-3,.,-2.0,0.69,-6,.,.,.
CC(C)NC(=S)NN=C1c2ccccc2-c2ccccc21,2.5,1,i,2.2,0.71,5,4,12,1.0
Cc1cc(N2CCOCC2)nc(-c2ccc(Br)cc2)n1,0.4,-2,.,-0.8,0.67,-4,.,.,.
COc1ccc(C(=O)NNC(=O)C(=O)NCc2ccccc2)cc1,-1.7,5,i,-0.4,0.72,-11,1,-1,1.6
COc1ccc(C(=O)N2CCN(c3ccccc3)CC2)cc1S(=O)(=O)N1CCCC1,1.1,-2,i,1.7,0.66,.,-5,-7,-3.5
COc1ccc2cc(CN(C(=O)Nc3ccccc3)C3CCCC3)c(=O)[nH]c2c1,4.3,-8,.,-4.0,0.71,-5,.,.,.
O=[N+]([O-])c1cc(-c2n[nH]c(-c3ccccc3)n2)cc([N+](=O)[O-])c1,3.1,-2,i,1.0,0.61,-3,18,15,-0.3
COc1ccc(-c2sc3cc(OC)c(OC)cc3c2C#CCCO)cc1,6.8,10,i,0.1,0.81,0,0,-5,12
CCOC(=O)C1CCCN(C(=O)Cn2cnc3c2c(=O)n(C)c(=O)n3C)C1 (stereo not drawn),4.8,-3,.,0.2,0.73,-15,.,.,.
CCCCNc1ccccc1C(=O)OCC(=O)Nc1ccc(S(N)(=O)=O)cc1,i,-8,.,5.3,0.72,-17,.,.,.
COc1cc(C(O)c2nc(-c3ccc(F)c(Cl)c3)cs2)ccc1F (stereo not drawn),.,.,i,-3.6,.,.,-64,-77,-18
COc1cc2ncnc(NCc3cccc(F)c3F)c2cc1OC,2.2,-2,i,4.9,0.68,4,-12,-21,-5.6
O=C(OCC(=O)N1CCc2ccccc21)c1ccccc1[N+](=O)[O-],-1.7,-7,i,1.4,0.68,.,-7,0,2.3
Cc1ccc(C(=O)N(Cc2ccc3c(c2)OCO3)Cc2nc3ccccc3c(=O)[nH]2)cc1,-1.9,6,i,5.5,0.65,0,8,0,-3.9
CCOC(=O)c1cnc(-n2nc(C)cc2C)nc1NNc1cc(-c2ccccc2)nc(C)n1,2.7,.,.,.,0.66,-5,.,.,.
C/C=C/c1ccc(OC(C)=O)c(OC)c1,3.2,-3,i,-2.3,.,9,6,9,7.3
O=C(NC(=S)Nc1ccccc1N1CCOCC1)c1sc2ccccc2c1Cl,4.3,2,.,-4.0,0.71,-13,.,.,.
CC(=O)Nc1cc(-c2ccc(N(C)C)cc2)cn2c(-c3ccc(F)cc3)cnc12,.,.,i,6.5,.,.,6,17,1.9
N#CC1=C(S)N(c2ccc(F)cc2)C(c2cccs2)NC1=O (stereo not drawn),4.7,1,.,-1.0,0.69,.,.,.,.
CC(C)(C)n1nnnc1C(c1ccccc1)N1CCCN(Cc2ccc(F)cc2)CC1 (stereo not drawn),.,.,i,-3.3,.,.,0,-2,0.3
O=C(CCc1nc2sc3c(c2c(=O)[nH]1)CCCC3)Nc1cccc(Cl)c1,-1.8,-5,i,0.8,0.71,19,3,-4,-0.4
COc1ccc(CNC(=O)Cn2nnc3ccccc3c2=O)cc1,5.0,-16,i,3.1,0.69,-3,5,9,-1.8
Cc1ccc(C)c(-n2nnnc2SCC(=O)NNC(=O)c2ccco2)c1,-1.0,6,i,1.6,0.67,-1,12,15,-0.5
COc1ccccc1CNc1ncnc2sccc12,0.5,-9,i,2.1,0.66,0,1,-6,-2.2
CCCn1nnnc1SCC(=O)Nc1ccc(F)cc1,-1.2,-7,.,-0.2,0.72,-9,.,.,.
COC(=O)C1=CN(c2ccc(F)cc2)C=C(C(=O)OC)C1c1ccc(O)cc1,-366,2,i,2.5,0.6,-4,3,-2,2.4
COc1ccc(/C=c2\s/c(=C/C(=O)c3ccc(C)cc3)[nH]c2=O)c(OC)c1,.,-117,i,36,.,-2,38,1,4.3
CC1CCN(CCCNC(=O)c2ccc(N3CCCC3=O)cc2)CC1,3.5,-4,i,-1.5,0.68,-2,2,5,-0.7
CCc1ccc(-c2cc(C(=O)Nc3c(C)n(C)n(-c4ccccc4)c3=O)c3ccccc3n2)s1,-38,18,i,19,0.67,-1,-16,-5,17
CCOC(=O)CNC(=O)c1ccc(OCC(F)(F)F)cc1,2.8,7,i,-0.2,0.69,-14,16,16,7.9
COC(=O)[C@@H]1C[C@@]2(O)[C@@H](O)[C@@H](O)[C@@H](O)C[C@H]2N1Cc1ccc(-c2ccccc2)cc1,0.1,5,i,0.8,.,.,2,0,6.8
Cc1nnc(SCC(=O)NC(C)(C)C)n1NCc1ccc(Cl)cc1,2.6,-2,i,0.4,0.71,.,9,6,7.4
COc1ccccc1[C@H]1C(c2ccccc2)=NN(c2ccccc2)[C@@H]1CO,i,7,.,0.2,0.7,.,.,.,.
Cc1ccc(C(=O)N(CC(=O)NC2CCCC2)c2cccc(F)c2)s1,3.0,-4,i,0.1,0.62,-1,-3,-6,2.8
CCOc1ccccc1-n1nnnc1SCC(=O)Nc1cc(C)on1,-4.0,-10,.,3.8,0.7,-7,.,.,.
CCc1nc2ccc(C(=O)Nc3cccc(OC)c3)cn2c1N(C)Cc1ccc(OC)cc1,.,.,i,-1.8,.,.,0,-8,31
CCCn1c(N)c(C(=O)CSc2nc(N)cc(=O)[nH]2)c(=O)n(C)c1=O,0.5,6,i,-0.1,0.7,7,16,12,0.2
Cc1ccc(-c2nc3ccccc3s2)cc1NC(=S)NC(=O)c1cccc2ccccc12,.,2,.,4.4,.,-11,.,.,.

# 2 successive entries already listed:
SMILES,UCH37 inh,Beta2AR agonist,FGF22 binding,HNF4A DNA FP,E coli growth,ALR H2O2 inh,rRNA inh HTS,rRNA inh HTS OD600,rRNA inh HTS RFP
COc1ccccc1CNc1ncnc2sccc12,0.5,-9,i,2.1,0.66,0,1,-6,-2.2
CCCn1nnnc1SCC(=O)Nc1ccc(F)cc1,-1.2,-7,.,-0.2,0.72,-9,.,.,.

# Quoted at random: 3 entries already listed
SMILES,UCH37 inh,Beta2AR agonist,FGF22 binding,HNF4A DNA FP,E coli growth,ALR H2O2 inh,rRNA inh HTS,rRNA inh HTS OD600,rRNA inh HTS RFP
N#CC1=C(S)N(c2ccc(F)cc2)C(c2cccs2)NC1=O (stereo not drawn),4.7,1,.,-1.0,0.69,.,.,.,.
CCCn1c(N)c(C(=O)CSc2nc(N)cc(=O)[nH]2)c(=O)n(C)c1=O,0.5,6,i,-0.1,0.7,7,16,12,0.2
COc1ccc(CNC(=O)Cn2nnc3ccccc3c2=O)cc1,5.0,-16,i,3.1,0.69,-3,5,9,-1.8

# The list continues:
SMILES,UCH37 inh,Beta2AR agonist,FGF22 binding,HNF4A DNA FP,E coli growth,ALR H2O2 inh,rRNA inh HTS,rRNA inh HTS OD600,rRNA inh HTS RFP
COc1cc(NC(=S)NCc2ccc(S(N)(=O)=O)cc2)cc(OC)c1,4.1,0,i,0.3,0.69,6,12,8,0.5
CN=Cc1cc(-c2ccccc2)sc1O,3.6,5,.,-1.7,0.63,44,-12,0,-1.5
Cc1ccc(NC(=O)O/N=C/c2ccc(N(C)C)cc2)cc1,.,2,i,3.5,.,27,-2,5,-2.3
Brc1ccc(-c2nc(-c3ccncc3)no2)o1,0.8,21,.,-5.4,0.63,-15,13,14,3.4
Cc1ccc(NC(=O)N2CCCC2C(=O)Nc2ccc3c(c2)OCO3)cc1 (stereo not drawn),2.8,-11,i,-1.9,0.7,-14,4,2,-0.6
CCCS(=O)(=O)N1CCc2ccc(NC(=O)c3ccccc3Cl)cc2C1,-0.3,-1,i,-3.4,0.72,-11,1,1,6.0
C/C(=N/OC(=O)c1ccccc1Br)c1ccc(C)cc1,.,-6,i,-4.4,.,3,-18*,0.3*,3.1*
CCc1c(C)[nH]c2ccc(OC)cc2c1=S,-20,2,i,3.4,0.67,.,10,14,0.9

# Assay outcomes from PubChem.
